HepG2 tox – counter-screen for TGF-b inhibitors: cytotoxicity in HepG2 cells | AID 588856 | HepG2 CAGA-GFP viability, ATP luminescence, 18 h | actives 0.76% (n = 410,000) | Potency, µM (doses to about 46.1 µM), inactives show top-dose activity change, negative = cytotoxicity, actives largely listed as cytotoxic; also: some results filed as inactive show a strong effect at the top dose
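HepG2 CAGA-GFP cells (1000/well, DMEM with 1% FBS) received compound, then TGF-beta at 500 pg/mL final, and were incubated 18 hours at 37 degrees C. Viability was read by CellTiter-Glo luminescence. Media-only wells were set as complete cell-killing and DMSO as no toxicity.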
MCF10A rerep – inducers of DNA re-replication in MCF 10A breast cells; MCF 10A DNA re-replication, Hoechst nuclear intensity, 48 h; Potency, µM (highest dose often 46.1 µM), for the others: top-dose activity, positive = re-replication, most hits filed as activators; actives 2.9% (n = 350,000); also: % of control where 0% means no effect; nearly all actives have a fitted effect of over 50% in size
A549 viability – A549 cytotoxicity, counter-screen for Nrf2 inhibitors | A549 ARE-Fluc cells, CellTiter-Fluor viability, 18-24 h | Potency, µM (series often up to 46 µM), without a hit: at the top dose activity change, negative = cytotoxicity, actives largely listed as inhibitors | actives 0.16% (n = 390,000); also: % is scaled to controls: 0 for no effect and ±100 for the full control effect
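A549 ARE_Fluc cells in 5% FBS OPTI-MEM were exposed to compounds in concentration-response for 18-24 h at 37 deg C. Viability was read by CellTiter-Fluor fluorescence (Ex 405/Em 525) after 30 min, before the luciferase read.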
EPAC2 antag – blocks human EPAC2 exchange factor; EPAC2 GEF exchange of Rap1B-BODIPY-GDP, fluorescence; actives 0.18% (n = 360,000); AID 720708; Potency, µM (top dose mostly 114 µM), for the others: at the highest dose activity, negative = inhibition, actives largely listed as inhibitors; also: % is scaled to controls: 0 for no effect and ±100 for the full control effect; nearly all actives have a fitted effect of over 45% in size; many of its hits are not listed in these tables
Target sequence (Q8WZA2 whole entry, looked up): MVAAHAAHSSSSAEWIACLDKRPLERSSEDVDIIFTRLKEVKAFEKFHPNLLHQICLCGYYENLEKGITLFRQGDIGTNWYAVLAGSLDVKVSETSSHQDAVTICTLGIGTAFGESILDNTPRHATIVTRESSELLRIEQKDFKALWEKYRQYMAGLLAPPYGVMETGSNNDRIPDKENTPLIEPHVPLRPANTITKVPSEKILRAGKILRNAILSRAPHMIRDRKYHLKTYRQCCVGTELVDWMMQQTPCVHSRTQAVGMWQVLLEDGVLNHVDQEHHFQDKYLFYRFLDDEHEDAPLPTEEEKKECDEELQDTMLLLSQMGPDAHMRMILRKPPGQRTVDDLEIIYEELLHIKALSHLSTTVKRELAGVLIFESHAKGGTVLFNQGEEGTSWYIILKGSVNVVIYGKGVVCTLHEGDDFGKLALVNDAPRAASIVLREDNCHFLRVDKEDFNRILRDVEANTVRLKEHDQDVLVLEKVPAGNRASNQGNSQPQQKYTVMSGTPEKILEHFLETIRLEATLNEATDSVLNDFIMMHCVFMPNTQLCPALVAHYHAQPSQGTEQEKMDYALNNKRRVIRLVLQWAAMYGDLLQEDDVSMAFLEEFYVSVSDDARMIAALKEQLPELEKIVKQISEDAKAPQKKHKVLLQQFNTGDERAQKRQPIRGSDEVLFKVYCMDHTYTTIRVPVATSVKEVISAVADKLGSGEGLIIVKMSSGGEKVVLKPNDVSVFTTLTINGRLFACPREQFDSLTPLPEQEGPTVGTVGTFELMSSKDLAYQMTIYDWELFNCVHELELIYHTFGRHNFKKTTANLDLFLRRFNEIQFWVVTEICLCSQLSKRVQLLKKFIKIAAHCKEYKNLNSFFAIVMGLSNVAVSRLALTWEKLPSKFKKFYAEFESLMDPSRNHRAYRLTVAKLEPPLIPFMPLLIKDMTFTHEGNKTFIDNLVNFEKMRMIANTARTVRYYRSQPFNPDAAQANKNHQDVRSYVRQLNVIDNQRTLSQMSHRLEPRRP
TGFb SMAD3 inh – blocks TGF-b signaling | actives 1.2% (n = 410,000) | Potency, µM (top dose mostly 46.1 µM), for the others: top-dose activity, negative = inhibition, usual class: inhibitors | HepG2 CAGA-GFP TGF-b/SMAD3 reporter, GFP fluorescence, 18 h; TGF-beta stimulated, 500 pg/mL final; also: % is scaled to controls: 0 for no effect and ±100 for the full control effect; nearly all actives have a fitted effect of over 65% in size
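Per well, imaged GFP fluorescence of HEPG2 CAGA-GFP cells gives the signal; cells get compound, then TGF-beta (500 pg/mL final), 18 h at 37 degrees C; %Activity versus -TGF-beta and +DMSO controls.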
The depositor's hits bear a star; ? = inconclusive; nt = no result given; & = joins results of further samples; [ ] = remark or other dose. Calls follow the shape of the dose curve; as a rule, active = well fitted curve in the direction sought with a large enough effect; inconclusive = small, poorly fitted or top-dose-only effect, or another doubt; inactive = no such curve, though single readings can be large; an effect the other way counts as inactive or inconclusive. Potency is read from the fitted curve at half-maximal effect.

No.	Compound	EPAC2 antag	MCF10A rerep	HepG2 tox	TGFb SMAD3 inh	A549 viability
1	CCN(CC)CC(=O)Nc1c(C)cccc1C	-8.3%&-11.3%&-20.0%	?	5.1%&11.3%&9.1%	-2.1%&14.1%&21.2%	-0.6%&-2.3%&2.1%
2	CC(C)NC[C@H](O)COc1cccc2ccccc12	2.9%	0.7%	-21.1%	11.1%	6.6%
3	CN1CCN(CCCN2c3ccccc3Sc3ccc(C(F)(F)F)cc32)CC1	?	23.1µM*	-116.2%&-111.2%&-68.1%	?	17.5%&-9.0%&-3.8%
4	CN/C(=C\[N+](=O)[O-])NCCSCc1ccc(CN(C)C)o1	-12.3%	0.1%	-8.4%&6.6%	-7.1%&22.0%	-7.1%
5	C#CC1(O)CCC2C3CCC4=C(CCC(=O)C4)C3CCC21C (stereo not given)	0.9%	9.2%	-22.3%	-12.1%	-0.1%
6	CCN(CC)CCC[C@H](C)Nc1ccnc2cc(Cl)ccc12	nt	3.8%	nt	nt	nt
7	COc1ccc2cc1Oc1ccc(cc1)C[C@H]1c3c(cc4c(c3Oc3cc5c(cc3OC)CCN(C)[C@@H]5C2)OCO4)CCN1C	-9.8%	?	-37.4%	?	?
8	C[N+]1(C)CCC(OC(=O)C(O)(c2ccccc2)C2CCCC2)C1 (stereo not given)	28.5%	20.3%	3.7%	-0.7%	-5.2%
9	CC[C@H](C)C(=O)O[C@H]1C[C@@H](C)C=C2C=C[C@H](C)[C@H](CC[C@@H]3C[C@@H](O)CC(=O)O3)[C@H]21	?	?	-42.6%&-58.2%	92.0%&53.0%[activator]	-2.3%&-10.9%
10	O[C@@H](c1cc(C(F)(F)F)nc2c(C(F)(F)F)cccc12)[C@H]1CCCCN1	17.1%	?	-113.8%&-102.9%	10µM*	-5.9%&1.9%
11	O=C(CCN1CCN2CCCC2C1)N1c2ccccc2Sc2ccc(Cl)cc21 (stereo not given)	-11.1%	?	-34.1%	-16.0%	?
12	CC(C)NC[C@@H](O)COc1cccc2ccccc12	-8.1%	-1.1%	-1.4%	21.1%	4.0%
13	COc1ccc(OC)c(Cc2cnc3nc(N)nc(N)c3c2C)c1	4.5%	15.9%	-51.2%	-13.2%	-11.2%
14	NS(=O)(=O)c1cc(C(=O)O)c(NCc2ccco2)cc1Cl	0.0%	?	2.4%	16.6%	-1.2%
15	CN1CCC(OC(c2ccccc2)c2ccccc2)CC1	7.8%	-0.6%	-3.9%	26.3%	-10.4%
16	Cc1ccc(/C(=C\CN2CCCC2)c2ccccn2)cc1	17.0%	-11.9%&-3.2%	2.4%	22.6%	-7.7%

Some of the entries so far, with two lines to a compound:
Each structure is followed by: EPAC2 antag, MCF10A rerep, HepG2 tox, TGFb SMAD3 inh, A549 viability
[6] CCN(CC)CCC[C@H](C)Nc1ccnc2cc(Cl)ccc12
    nt, 3.8%, nt, nt, nt
[2] CC(C)NC[C@H](O)COc1cccc2ccccc12
    2.9%, 0.7%, -21.1%, 11.1%, 6.6%
[1] CCN(CC)CC(=O)Nc1c(C)cccc1C
    -8.3%&-11.3%&-20.0%, ?, 5.1%&11.3%&9.1%, -2.1%&14.1%&21.2%, -0.6%&-2.3%&2.1%
[14] NS(=O)(=O)c1cc(C(=O)O)c(NCc2ccco2)cc1Cl
    0.0%, ?, 2.4%, 16.6%, -1.2%

For convenience, part of the list above:
No.	Compound	EPAC2 antag	MCF10A rerep	HepG2 tox	TGFb SMAD3 inh	A549 viability
13	COc1ccc(OC)c(Cc2cnc3nc(N)nc(N)c3c2C)c1	4.5%	15.9%	-51.2%	-13.2%	-11.2%
14	NS(=O)(=O)c1cc(C(=O)O)c(NCc2ccco2)cc1Cl	0.0%	?	2.4%	16.6%	-1.2%
15	CN1CCC(OC(c2ccccc2)c2ccccc2)CC1	7.8%	-0.6%	-3.9%	26.3%	-10.4%
16	Cc1ccc(/C(=C\CN2CCCC2)c2ccccn2)cc1	17.0%	-11.9%&-3.2%	2.4%	22.6%	-7.7%

High-throughput results from PubChem BioAssay.

Not all compounds are listed; the hit share may differ from the screen's.
